A1 inh = caspase 3/7 activation in MEF A1-2A-BIM cells, primary screen, A1 inhibitor project, cell-based, luminescence, HTS; Caspase-Glo 3/7 luminescence, 3 h; percent of clofoctol response, vehicle zero; caspase activation, % (concentration not given with the values); 330,000 tested, 0.066% active;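 active = over half of replicate activation scores above 10%, or exactly half above 10 with the replicate mean above 10; inconclusive = replicate mean below 10 yet half the replicates above 10; inactive = over half of replicates below 10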;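 also: wells of about 30 µL received 50 nL stock; many hits fall short of the cut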
Beta apoptosis = inhibitors of cytokine-induced beta cell apoptosis, primary screen, luminescence; INS-1E cytokine-induced death, ATP luminescence, 48 h; percent of positive-control rescue, neutral wells zero; protection from apoptosis, % (test concentration not listed); 300,000 tested, 0.8% active; AID 435005, 2010;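 active = all replicates at 75% or more, or half of them and the mean; inconclusive = half reach 75% but not the mean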;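 also: 0% = cytokine-treated negative control wells and 100% = positive control rescue; higher means more ATP so stronger rescue from cytokine killing; wells of about 40 µL received 100 nL stock; the first replicate is given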
Beta2AR agonist = beta2AR agonists driving receptor internalization, primary screen, cell-based, FAP fluorogen, flow cytometry. response, % (test concentration not listed). Beta-2 adrenergic receptor (Homo sapiens), P07550. 340,000 tested, 0.43% active. Am2.2-beta2AR cells; reference of the scale not given here;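 active = response above a set limit, near 3 SD of response in nonfluorescent compounds, cut at about 42% in these data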;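 also: stock transfer was 100 nL into about 11 µL; a reference agonist was the positive control; negative values mostly stem from fluorescent compounds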
Target sequence (P07550 whole entry, looked up): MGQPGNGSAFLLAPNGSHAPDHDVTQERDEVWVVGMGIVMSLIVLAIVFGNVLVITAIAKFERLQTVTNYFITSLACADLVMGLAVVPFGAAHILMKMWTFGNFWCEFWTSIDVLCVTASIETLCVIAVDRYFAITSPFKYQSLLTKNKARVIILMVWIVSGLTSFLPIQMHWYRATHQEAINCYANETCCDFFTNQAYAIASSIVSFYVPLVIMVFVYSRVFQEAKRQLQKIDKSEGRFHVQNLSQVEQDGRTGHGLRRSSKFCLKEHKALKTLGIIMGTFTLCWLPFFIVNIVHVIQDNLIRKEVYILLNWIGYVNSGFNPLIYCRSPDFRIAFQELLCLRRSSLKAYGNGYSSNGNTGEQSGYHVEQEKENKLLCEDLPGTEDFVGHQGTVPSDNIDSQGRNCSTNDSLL
LANA-H2A inh = blockers of LANA interaction with H2A/H2B – biochemical, FP readout, HTS, primary screen; Protein LANA1 (Human herpesvirus 8 type P (isolate GK18)), Q9QR71; cell-free LANA-H2A/H2B peptide, fluorescence polarization; inhibition, % (concentration not given with the values); 320,000 tested, 0.6% active; AID 2629, 2010; in the data active = inhibition mostly above about 10%, no sharp cut-off; inactive = mostly below about 6.7%;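 also: stock transfer was 7.5 nL into about 10 µL; 0% = median of vehicle wells and 100% = median of positive control wells; one replicate is shown; the record names a cut of 25% in any replicate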
T cruzi inh = inhibitors of intracellular T. cruzi growth, primary screen, luminescence, NIH3T3 host cells; T. cruzi beta-gal in NIH3T3, 90 h; inhibition, % (test concentration not listed); 300,000 tested, 1.4% active; AID 1885, 2009;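 active = mean inhibition across valid replicates above about 55%, limit read from the data; inconclusive = mean below that limit but half or more replicates reach it; inactive = mean below it, under half of replicates reach it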;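 also: signal also drops with host cell toxicity which is not excluded here; 0% = plate median of DMSO wells and 100% = zero luminescence signal; higher percent means less beta-gal luminescence so fewer parasites; stock transfer was 50 nL into about 50 µL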
rRNA inh HTS = reduced GFP signal of wild-type E. coli, primary screen, bacterial rRNA inhibitor project, GFP/RFP fluorescence, OD600, single point | AID 720706, 2013 | 350,000 tested, 1.6% active | E. coli WT GFP vs humanized-ribosome RFP mutants, 24 h; stronger effect = lower value; DMSO median 0, no signal -100 | GFP signal change (wild-type ribosome), % (no concentration beside the values);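 active = significant combined selectivity score with lowered wild-type GFP, culture density cut under 30%, mutant RFP and density less affected; inactive = any of these conditions unmet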; also: one replicate is shown; some compounds called inactive have numbers as strong as hits
ALR H2O2 inh = inhibitors of human ALR sulfhydryl oxidase, primary screen, biochemical, H2O2 detection, HRP-luminol luminescence, single point. FAD-linked sulfhydryl oxidase ALR (Homo sapiens), P55789. purified ALR, DTT oxidation. inhibition, % (concentration not given with the values). 290,000 tested, 3.8% active. AID 485317, 2010;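 active = mean and each replicate at 75% or more; inconclusive = only one of the two met; inactive = neither met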;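 also: stock transfer was 7.5 nL into about 7.5 µL; 0% = neutral wells and 100% = wells with inactivated enzyme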
Target sequence (P55789 whole entry, looked up): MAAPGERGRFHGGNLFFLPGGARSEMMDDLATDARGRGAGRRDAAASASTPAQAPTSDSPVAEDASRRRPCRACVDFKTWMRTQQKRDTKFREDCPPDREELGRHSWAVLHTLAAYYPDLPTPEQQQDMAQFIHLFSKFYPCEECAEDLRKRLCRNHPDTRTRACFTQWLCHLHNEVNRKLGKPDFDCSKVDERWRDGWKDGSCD
Calb FLC = C. albicans growth inhibition with fluconazole, primary screen, CaCi-2 strain, Alamar Blue fluorescence | C. albicans CaCi-2 (fluconazole-resistant clinical isolate) + fluconazole, 48 h | growth inhibition, % (test concentration not listed) | 300,000 tested, 0.57% active | AID 1979, 2009;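 active = most replicates above 75%; inconclusive = exactly half above 75%; inactive = most below 75%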;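 also: all wells also contain fluconazole at 8 µg/ml as a sub-toxic cotreatment; 0% = median of DMSO wells and 100% = median of geldanamycin control wells; wells of about 8 µL received 7.5 nL stock; the first replicate is given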
rRNA inh HTS OD600 = further read-out of rRNA inh HTS, marked with its call; OD600 change, %; measured here: OD600 growth;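 optical density of the mix in the first replicate; 0 = DMSO median and -100 = no signal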
rRNA inh HTS RFP = also measured in rRNA inh HTS; calls as there; RFP signal change, %; measured here: RFP humanized mutant strains;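 first replicate; 0 = DMSO median and -100 = no signal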
The depositor's hits bear a star; ? = inconclusive; · = no result given. Some of the compounds tested, so the mix of outcomes need not match the whole.

Each structure is followed by: A1 inh	Beta apoptosis	rRNA inh HTS RFP	rRNA inh HTS	rRNA inh HTS OD600	LANA-H2A inh	T cruzi inh	Beta2AR agonist	ALR H2O2 inh	Calb FLC
1: C(=N\Nc1nc2ccccc2s1)/c1ccc2c(c1)OCO2
 : -0.3	-3	-3.1	-7	2	0.4	-9	11	-2	-7
2: CC1S/C(=N/N=C/c2cccc([N+](=O)[O-])c2)NC1=O (stereo not drawn)
 : 0.3	4	-0.1	4	11	-6.2	-9	2	-6	4
3: O=C(c1cc2ccccc2oc1=O)N(c1ccccc1)C1C=CS(=O)(=O)C1 (stereo not drawn)
 : 0.4	-3	·	·	·	4.5	-44	-4	·	-8
4: CCCCCCCC(O)CC(CC1CCCCC1)C(=O)NN (stereo not drawn)
 : 0.0	-7	·	·	·	0.0	-5	-3	-26	2
5: Cc1ccc(C)c(OC(=O)c2ccncc2)c1
 : 0.5	-2	·	·	·	8.1	-13	-15	-13	-2
6: O=C(NC1CC2CCCC(C1)N2Cc1ccc(F)cc1)c1ccc(F)cc1 (stereo not drawn)
 : 0.2	·	6.4	27	11	-3.0	1	2	-13	-5
7: Cn1c(N)c(C(=O)COC(=O)CC(NC(=O)c2ccccc2Cl)c2ccccc2)c(=O)n(C)c1=O (stereo not drawn)
 : ·	-1	-3.0	6	-3	8.7	-16	8	-15	4
8: CC(=O)Nc1nc(CC(C)C)cc(-c2ccccc2)c1C#N
 : 0.4	7	-0.9	-18	-21	-2.4	-21	0	6	11
9: Cc1cccc(C2(c3cccc(C)c3)OC(=O)c3ccccc32)c1
 : -0.5	124*	·	·	·	-0.4	-9	-6	-18	28
10: O=C(O)CC(NC(=S)NCc1ccccc1)C(=O)O (stereo not drawn)
 : 0.6	-10	-0.6	12	2	0.6	·	1	8	-20
11: Cc1cccc(N(C(=O)c2cnc3n(c2=O)CCS3)C2CCCCC2)c1
 : 0.7	-8	-4.3	10	5	-0.5	9	-7	-2	3
12: CCC(Oc1ccccc1)C(=O)NCc1cccnc1 (stereo not drawn)
 : -0.5	2	·	·	·	0.5	-4	-2	-4	-7
13: O=C(CCCN1C(=O)c2cccc3cccc(c23)C1=O)Nc1nccs1
 : -0.5	-2	2.1	4	10	-0.2	-1	10	-7	-2
14: CCOc1ccc(S(=O)(=O)n2ccnc2)c2ccccc12
 : 1.6	·	5.0	10	5	-4.0	-3	1	-23	-4
15: Cc1cccc(NC(=O)CN(C)S(=O)(=O)c2ccc(Cl)cc2)n1
 : 0.1	-7	·	·	·	3.3	-20	-5	3	-16
16: O=S(=O)(c1ccc2nnn(OCc3ccccc3)c2c1)N1CCOCC1
 : 1.3	4	-2.4	-6	-15	-2.7	-7	3	-1	11
17: COc1ccc(S(=O)(=O)Nc2ccc(F)cc2F)cc1C(=O)N1CCOCC1
 : 0.0	6	-2.0	1	11	-2.0	1	1	·	0
18: CCOC(=O)c1cnc(-n2nc(C)cc2C)nc1Nc1ccc(N(C)C)cc1
 : -0.4	109*	·	·	·	0.0	63*	-10	34	-2
19: CN1c2ccsc2C(=O)/C(=C\Nc2cccc(C(F)(F)F)c2)S1(=O)=O
 : 0.3	-3	3.8	6	-5	0.7	-7	-7	-11	-9
20: COc1ccc(CSc2nncn2N)cc1[N+](=O)[O-]
 : 0.0	1	·	·	·	-1.8	-16	4	?	4
21: Cc1ccc(S(=O)(=O)N[C@@H](CO)C(=O)N[C@@H](Cc2ccc(O)cc2)C(=O)O)cc1
 : 0.0	4	-3.0	4	5	0.7	-10	0	1	4
22: CC(C)(Nc1ccccc1)C(=O)c1ccccc1
 : 0.4	-1	-0.6*	-20*	5.5*	6.3	-13	1	12	-8
23: CCN(CC)S(=O)(=O)c1csc(C(=O)NC2CCCCC2)c1
 : -0.3	-2	·	·	·	-0.3	-4	3	-9	18
24: COc1ccccc1NC(=O)c1ccc(NC(=O)c2ccc(=O)[nH]c2)cc1
 : -0.7	1	0.9	-1	7	2.7	·	-6	-3	·
25: C=CCNC(=S)NNC(=O)c1ccc(OCC)cc1
 : 1.5	1	·	·	·	-0.5	-13	-4	6	-2
26: NC(=O)C1CCN(c2ccnc3cc(Cl)ccc23)CC1
 : -0.6	-1	1.0	15	8	3.9	-3	2	-7	41
27: O=C(NCc1ccco1)C1CCN(Cc2ccc(F)cc2)CC1
 : 0.6	-3	·	·	·	3.0	-5	3	·	8
28: CCOC(=O)c1c(NC(=O)CSc2nc3ccc(OC)cc3[nH]2)sc2c1CC(C)(C)NC2(C)C
 : 0.4	-3	5.7	-1	-14	-3.5	46	26	-6	0
29: CC1(C)C=C2C(=NN(c3ccccc3)C(N)=C2C#N)CO1
 : 1.0	-3	9.1	13	9	-3.5	9	-1	·	2
30: CN(C)c1cccc(C(=O)NC2CCCc3ccccc32)c1 (stereo not drawn)
 : -0.5	-1	-1.0	3	5	-0.2	-5	-3	-5	17
31: Cc1ccnc2c(N3C(=O)C4C5c6ccccc6C(c6ccccc65)C4C3=O)cccc12 (stereo not drawn)
 : 0.2	-4	·	·	·	1.6	9	10	-12	-36
32: CCOC(=O)c1ccc(NC(=O)NC2CCN(CC(=O)NCc3ccc4c(c3)OCO4)CC2)cc1
 : -0.1	0	·	·	·	2.3	22	0	-3	-11
33: CCCOc1ccc(C2C(C#N)=C(N)Oc3nc[nH]c(=O)c32)cc1OC (stereo not drawn)
 : 0.2	-7	·	·	·	0.0	10	-2	12	4
34: CCOC(=O)c1cccc(S(=O)(=O)N(CCO)Cc2cc3cc(OC)ccc3[nH]c2=O)c1
 : ·	·	6.3*	-18*	-9.1*	·	-2	3	·	-1
35: C=CCC1(CC=C)CCCN1C(=O)CC1C(=O)NCCN1Cc1ccc(OC)c(OC)c1 (stereo not drawn)
 : 0.5	-2	0.1	9	3	1.7	1	0	-2	-9
36: Cc1ccc(C)c(CSc2nnc(C)c(=O)n2N)c1
 : 0.7	4	-7.3	8	5	1.6	-8	-2	-7	6
37: CCOC(=O)C1=C(N)N(c2ccccc2)C2=C(C(=O)CCC2)C1c1cccnc1 (stereo not drawn)
 : 0.0	2	·	·	·	5.9	27	-1	14	2
38: COCCNC(=S)Nc1ccc2[nH]c(=O)[nH]c2c1
 : 0.8	0	-7.9	3	15	-0.8	-12	-7	·	1
39: CC(C)(C)c1ccc(SCCc2ccccn2)cc1
 : -0.5	-5	-9.5	-29	-28	2.5	-8	-2	·	-3
40: Cc1cccc(OCC(=O)Nc2ccc(CN3CCOCC3)cc2)c1C
 : 0.0	1	-1.1	2	2	2.6	-1	7	1	8
41: COc1ccc([C@H]2CC(=O)C=C(c3cccc(C(F)(F)F)c3)C2)cc1
 : 0.3	-15	-5.2	-4	-10	-0.5	·	-6	-5	·
42: O=[N+]([O-])c1ccc(-c2nc(-c3cccs3)c(-c3cccs3)[nH]2)cc1
 : 1.0	32	9.2	-21	-23	2.3	48	-62	15	1
43: Cc1ccc(N2C(=O)CC(NCc3ccc4c(c3)OCO4)C2=O)cc1Cl (stereo not drawn)
 : -0.3	4	·	·	·	4.4	-10	-8	34	-7
44: Nn1c(-c2ccccn2)nnc1-c1ccccn1
 : 0.0	2	·	·	·	2.4	-8	2	-9	1
45: COc1ccccc1OCCNC(=O)c1cc(=O)[nH]c2ccccc12
 : 0.4	2	-2.1	-3	11	-1.8	-3	-3	-6	1
46: CCCCSc1nc2c(cc1C#N)CCC2
 : -1.3	-5	·	·	·	3.4	·	-6	-33	3
47: CCOc1ccc(OCC)c(S(=O)(=O)n2cnc(C)c2)c1
 : 1.2	-8	-1.6	6	5	1.3	-2	-3	-7	-2
48: CCC(C)Nc1ccc(NC(C)CC)cc1 (stereo not drawn)
 : -0.2	109*	·	·	·	-9.7	·	22	99*	·
49: O=c1c2ccccc2nc(SCc2nnc(-c3ccccc3)o2)n1-c1ccc(F)cc1F
 : -0.2	33	·	·	·	3.4	27	-4	-1	13
50: COc1cc(F)ccc1CN1CCC(n2nccc2NC(=O)C2CCOC2)CC1 (stereo not drawn)
 : 0.0	·	-1.8	7	10	0.9	7	-4	-8	5

Remaining list, next part
Each structure is followed by: A1 inh	Beta apoptosis	rRNA inh HTS RFP	rRNA inh HTS	rRNA inh HTS OD600	LANA-H2A inh	T cruzi inh	Beta2AR agonist	ALR H2O2 inh	Calb FLC
51: CSc1nc2c(c(=O)[nH]1)C(c1cccc(Cl)c1Cl)CC(=O)N2 (stereo not drawn)
 : 1.3	·	1.5	12	9	-1.6	-23	-4	-5	0
52: Cc1c(NP(=O)(Oc2ccccc2F)Oc2ccccc2F)c(=O)n(-c2ccccc2)n1C
 : 0.8	-2	0.9	4	-5	-0.9	-3	-20	13	0
53: Cc1ccc(OCCNC(=O)c2ccc3ccccc3n2)cc1
 : -0.3	-8	-5.0	-20	-45	-3.6	-7	-6	·	-5
54: C/C(=N/NC(=O)c1ccc(Br)o1)c1cccs1
 : -7.2	2	-1.5	7	12	-2.8	-13	3	-1	1
55: Cc1ccc(-c2nc(=S)c3c(n2Cc2ccco2)CC(C)(C)OC3)cc1
 : -0.1	·	·	·	·	2.9	18	14	97*	17
56: Cc1ccc(C)c(NC(=S)NNC(=O)c2ccco2)c1
 : 0.6	-1	·	·	·	-3.8	0	2	18	-4
57: CCN(CC)C(=O)c1c(-c2ccccc2)oc2ccc(O)cc12
 : 1.5	-5	-12	-31	-50	3.7	17	0	52	-3
58: CC(C)c1ccc(NC2CCCN(C(=O)c3ccncc3)C2)cc1 (stereo not drawn)
 : 0.2	-3	-4.2	2	5	-0.7	-1	-3	54	-33
59: C/C(=N\NC(=O)c1cccnc1)c1ccc(OC2OCCOC2Oc2ccc(/C(C)=N/NC(=O)c3cccnc3)cc2)cc1 (stereo not drawn)
 : -0.2	32	2.0	5	10	-2.8	-3	16	4	2

Screens as filed in PubChem BioAssay.
